TRPML1 inh – inhibitors of human TRPML1 channel; Q9GZU1; TRPML1-inducible cells, Ca2+ dye fluorescence, FDSS; hits give low values; inhibition of EC80 agonist-evoked calcium signal; activity change, negative = inhibition, % (concentration not given with the values); 390,000 tested, 0.02% active; AID 624415; in the data active means activity change below about -50%; inconclusive means about -30% to -50%; inactive means above about -30%;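 also: stimulus is agonist 54-4 at its EC80 concentration; % is scaled to controls: 0 for no effect and ±100 for the full control effect; compound concentration not given in the record; the text of the record puts the active cut at -80%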
Target sequence (Q9GZU1 whole entry, looked up): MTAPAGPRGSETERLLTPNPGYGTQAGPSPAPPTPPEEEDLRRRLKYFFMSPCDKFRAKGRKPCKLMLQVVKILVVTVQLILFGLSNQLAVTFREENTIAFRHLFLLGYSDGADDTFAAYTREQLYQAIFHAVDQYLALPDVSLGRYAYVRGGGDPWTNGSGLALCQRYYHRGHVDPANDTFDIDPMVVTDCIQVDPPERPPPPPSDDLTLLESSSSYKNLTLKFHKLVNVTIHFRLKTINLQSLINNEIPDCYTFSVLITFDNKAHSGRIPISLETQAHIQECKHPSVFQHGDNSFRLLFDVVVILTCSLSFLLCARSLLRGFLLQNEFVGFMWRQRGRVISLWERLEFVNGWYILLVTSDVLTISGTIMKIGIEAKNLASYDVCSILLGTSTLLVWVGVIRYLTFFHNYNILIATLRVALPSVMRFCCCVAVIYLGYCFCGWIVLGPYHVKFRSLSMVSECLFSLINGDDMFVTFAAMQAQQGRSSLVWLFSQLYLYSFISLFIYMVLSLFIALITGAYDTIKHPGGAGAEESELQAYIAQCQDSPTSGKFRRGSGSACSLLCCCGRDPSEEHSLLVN
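TRPML1-DL cells, Tet-induced overnight (~16 h, 37 °C) at 1,500 cells/well, were loaded with Ca8 no-wash dye plus quencher for 45-90 min at room temperature. Compounds were pinned during FDSS kinetic reading; agonist 54-4 at EC80 (4 uM final) then added.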
PINK1 modulator – modulators of PINK1 expression; 410,000 tested, 0.2% active; AID 624263; PINK1 immunofluorescence, high-content cytometry, 24 h; Potency, µM (titrated, usually from 76.6 µM), inactives show top-dose activation (PINK1 increase), hits mostly activators; active = well fitted activation curve with a large enough effect; inconclusive = small, poorly fitted or top-dose-only effect; inactive = flat fitted curve, though single readings scatter; cell line not stated here;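 also: potency is read from the fitted curve at half-maximal effect; % of control where 0% means no effect; nearly all actives have a fitted effect of over 65% in size; a mitochondrial uncoupler was the plate control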
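Compound titrations (5 concentrations, 24 h) on a stable cell line; DMSO and CCCP controls. Endpoint: fixed-cell PINK1 immunofluorescence with mitochondrial, cell and nuclear markers, scanned by microplate cytometer.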
TRPML1 agonist – agonists of human TRPML1 channel. 410,000 tested, 0.12% active. TRPML1-expressing cells, Ca2+ dye fluorescence, FDSS; host cell line not named in the record; reference of the full effect not given here. AID 624414. Q9GZU1. activation, % (concentration not given with the values); in the data active = activation above about 50%; inconclusive = about 30% to 50%; inactive = below about 30%; also: 0% is about no effect; the text of the record puts the active cut at 80%
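Kinetic FDSS Ca2+ read in Tet-induced TRPML1-DL cells (ABD Ca8 dye plus quencher, 45-90 min RT loading): baseline, then compound, then 110 s agonist window; EC80 agonist 54-4 at 4uM final added afterwards for a 110 s antagonist window.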
Six1-Eya2 blk – inhibitors of human Six1/Eya2 interaction | AID 651725 | 360,000 tested, 0.56% active | activity change, % (concentration not given with the values) | Q15475+O00167 | AlphaScreen GST-Six1/His-Eya2 binding, biochemical; hits give low values; control for the full effect not named in the record; in the data active = activity change below about -65%; inconclusive = about -30% to -65%; inactive = above about -30%; also: % is scaled to controls: 0 for no effect and ±100 for the full control effect
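AlphaScreen with GST-Six1 and His-Eya2 (5X mix: 250 nM and 500 nM), glutathione donor and nickel acceptor beads; buffer 50 mM Tris pH 8.0, 300 mM NaCl, 1 mM TCEP; 1 h at 37 C in the dark.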
D2 PAM – positive allosteric modulators of human D2 dopamine receptor; DiscoveRx D2 beta-arrestin cells, luminescence, 90 min; 100% = 57 uM dopamine signal; potentiation, % (concentration not given with the values); 360,000 tested, 0.23% active; AID 624464; active = potentiation of 50% or more; inconclusive = 30% to 50%; inactive = 30% or less;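 also: compound concentration not given in the record; tested on top of an EC20 dose of dopamine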
Target sequence (P14416 whole entry, looked up): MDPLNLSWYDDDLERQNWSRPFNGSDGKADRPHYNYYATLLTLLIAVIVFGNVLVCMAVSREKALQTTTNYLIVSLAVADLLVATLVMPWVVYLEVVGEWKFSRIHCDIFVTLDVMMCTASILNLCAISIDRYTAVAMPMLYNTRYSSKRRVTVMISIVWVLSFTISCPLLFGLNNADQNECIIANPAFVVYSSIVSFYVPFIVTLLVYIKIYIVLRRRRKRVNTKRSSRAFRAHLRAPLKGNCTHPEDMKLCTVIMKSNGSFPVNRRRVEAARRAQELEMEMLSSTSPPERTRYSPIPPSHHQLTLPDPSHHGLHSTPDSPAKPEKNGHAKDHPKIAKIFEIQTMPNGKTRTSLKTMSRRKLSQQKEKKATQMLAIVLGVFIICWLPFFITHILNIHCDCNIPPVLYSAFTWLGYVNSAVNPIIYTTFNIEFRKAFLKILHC
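PathHunter D2 cells, attached overnight at 37 deg C, received compound in DMSO plus dopamine at EC20 (50 nM final) for 90 min at 37 deg C. Beta-arrestin recruitment was read as luminescence after 1 h with detection reagent at ambient temperature.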
D2 ag – human D2 receptor agonism in beta-arrestin assay; DiscoveRx PathHunter D2 beta-arrestin, luminescence, 90 min; 100% = 57 uM dopamine signal; 360,000 tested, 0.084% active; activation, % (test concentration not listed); in the data active = activation above about 40%; inconclusive = about 15% to 40%; inactive = below about 15%; also: compound concentration not given in the record; the text of the record calls up to 30% inactive
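DiscoveRx PathHunter D2 beta-arrestin cells (2,100/well) attached overnight, then compound-stimulated 90 min at 37 C in HBSS/10 mM HEPES/0.1% Tween-20 buffer; beta-galactosidase complementation read by luminescence after 1 h at ambient temperature. Dopamine 57 uM final (EC100) as control.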
Active calls of the source: *; ? = inconclusive; · = not tested or not shown; [ ] = dose if it differs, or a comment.

SMILES	TRPML1 inh	PINK1 modulator	TRPML1 agonist	Six1-Eya2 blk	D2 PAM	D2 ag
CC(=O)O[C@H]1CC[C@H]2[C@@H]3CCc4cc(O)ccc4[C@H]3CC[C@]12C	39.0	-1.1%	-0.6	-0.6	-12.1	3.8
Nc1ccc(C(=O)NN2C(=O)[C@H](Cl)C2c2ccc(Cl)cc2)cc1 (some centres not stated)	14.1	-6.9%	0.2	-6.9	-21.9	-0.8
O=C(CSCc1ccc(Cl)cc1)Nc1ccc(S(=O)(=O)N2CCCCCC2)cc1	-2.2	1.8%	0.4	0.0	-1.4	-4.0
Cc1csc2ncc(C(=O)Nc3ccon3)c(=O)n12	5.6	·	0.0	-4.7	-11.9	-2.7
COc1ccc(NC(C)=O)cc1NC(=O)CN1CCN(S(=O)(=O)c2ccc(C(C)C)cc2)CC1	1.2	0.7%	0.5	10.3	-0.6	0.3
Cc1ccc(C2CC(=O)Nc3c2c(C)nn3-c2nc(C)cc(C)n2)c(C)c1 (configuration not stated)	20.1	2.7%	-0.5	·	·	·
CC(=O)Nc1ccc(S(=O)(=O)NCCC(=O)OCC(=O)NNC(=O)c2ccccc2)cc1	23.0	2.9%	-0.4	0.3	0.8	-4.2
CCN1CC(C)C(O)(c2ccccc2)CC1C (configuration not stated)	30.1	-0.4%	0.3	-2.6	-4.1	-7.5
CC1(C)CC(O)C(C)(C)N1O (configuration not stated)	-23.8	0.8%	-0.1	3.1	5.6	1.8
COC(/C=C/Nc1ccc(OC)cc1)=C(C#N)C#N	-5.2	·	-0.2	19.9	-1.9	-0.8
CCCCN(C(=O)c1cc2c(s1)CCCCC2)c1c(N)n(CCC)c(=O)[nH]c1=O	7.4	-0.6%	-0.4	6.8	-5.0	5.1
O=C1C2C3C=CC(CC3)C2C(=O)N1/N=C/c1c(O)ccc2ccccc12 (configuration not stated)	6.0	3.4%	1.4	10.1	11.4	-5.4
CCC(C)NC(=O)Cn1nc(C(F)(F)F)c2c1CCCC2 (configuration not stated)	-7.0	-1.7%	-0.2	6.4	-13.9	-0.6
Cc1cc(C)n(CC(O)COc2ccc(C(C)C)c(C)c2)n1 (configuration not stated)	-8.9	4.9%	-0.7	2.4	1.1	4.0
O=C(Nc1ccc(C(=O)N2CCCCC2)cc1)C1CCC1	36.7	-1.3%	0.7	-6.1	-4.2	-0.7
CCN(C(=O)C(C)Cl)c1ccccc1 (configuration not stated)	32.5	3.1%	-0.5	6.0	0.4	1.7
O=C(CN(C(=O)c1csnn1)c1ccc(Cl)cc1)NCCc1ccccc1	-1.5	-1.8%	-0.7	-16.8	-3.0	1.4
Cc1nc(N2CCN(S(=O)(=O)c3ccccc3)CC2)c2cc(-c3ccccc3)sc2n1	42.2	1.5%	-0.4	-2.1	-6.9	-7.0
Clc1ccc(-c2nnc3sc(Cc4cccs4)nn23)c(Cl)c1	-10.5	-1.1%	0.6	-4.2	-8.0	-2.4
Cc1ccc(C(=O)N2c3ccccc3OCC2C)cc1 (configuration not stated)	·	0.2%	·	1.0	6.4	-2.9
O=C(NCC(=O)N(c1ccccc1)C(C(=O)NC1CCCC1)c1ccncc1)c1cccs1 (configuration not stated)	18.4	-0.4%	-1.2	-10.2	-3.8	-1.9
Cc1c(CCC(=O)NCCCN2CCCC2=O)c(=O)oc2c(C)c(O)ccc12	·	-0.9%	·	0.8	-31.3	-5.9
CC(=O)c1nn(-c2ccc(Br)cc2)cc1C(=O)c1ccco1	18.8	-1.8%	3.2	-13.7	-19.9	-3.4
Cc1ccc(S(=O)(=O)N(CC(=O)NN=C2CCN(C)CC2)c2ccc(F)cc2)cc1	15.6	-2.3%	0.6	3.6	-0.1	7.9
CCCn1nc(C(=O)NNC(=O)CSC(C)C(=O)Nc2cc(C)on2)c2ccccc2c1=O (configuration not stated)	30.9	1.2%	2.3	2.9	-6.2	-3.2

Next section
SMILES	TRPML1 inh	PINK1 modulator	TRPML1 agonist	Six1-Eya2 blk	D2 PAM	D2 ag
COc1ccc(NC(=O)CN2C(=O)CCn3nc(-c4cccn4C)cc32)cc1	-5.4	-0.3%	0.3	·	·	·
CCCOc1cccc(C(=O)N2CCCCC2CCN2CCCCC2)c1 (configuration not stated)	0.8	0.4%	-0.2	·	·	·
COC(=O)C1=C(C(=O)OC)[C@@H]2N(Cc3ccccc3)c3ccccc3[C@@]23C[C@@H](CO)N(C(=O)NC2CCCC2)C3=N1	3.0	1.0%	0.7	-14.3	0.3	-1.1
CC(C)(C)NC(=S)N/N=C/c1cc(Br)c(O)c(Br)c1	-8.5	1.8%	-1.0	-4.1	-27.5	0.5
Cc1cccc(-n2ncc(C(=O)N3CCC(C)CC3)c2C2CCN(C(=O)OC(C)(C)C)CC2)c1	26.6	0.3%	0.5	·	·	·
O=C(NCc1ccc(Cl)cc1)C1CCN(C(=O)c2cnn(-c3ccccc3)c2-n2cccc2)CC1	6.1	-0.5%	-0.2	·	·	·
COCCCNC(=O)C[C@H]1C[C@H](C(=O)N2CCCCC2)[C@@]2(CCc3ccccc3)c3[nH]c4ccc(Cl)cc4c3CCN2C1=O	7.4	11.0%	-0.6	3.6	·	0.4
COc1cc(NC(=O)c2nn(-c3ccc(C)cc3)c(=O)c3c2c2ccccc2n3C)cc(OC)c1OC	-16.2	1.2%	0.7	·	·	·
O=C(Nc1ccc(Br)cc1)N1CCCCC1	10.1	0.5%	-1.1	-2.7	-29.0	-7.2
CCCS(=O)(=O)NCCc1cc2ccc(OC)cc2[nH]c1=O	7.1	0.0%	-1.0	-8.6	-4.2	-4.2
COc1ccc(C(C(=O)NC2CCCC2)N(CCCO)C(=O)c2snc(C(N)=O)c2N)cc1 (configuration not stated)	16.1	-0.3%	-0.6	-0.4	-4.8	-3.9
CC(O)(c1ccc(F)c(F)c1)c1nc(-c2cnc3ccccc3c2)cs1 (configuration not stated)	10.7	?	-0.5	-4.7	-2.3	-2.2
Cn1c(=O)cc(OCC(=O)NCc2ccc(F)cc2Cl)c2ccccc21	-5.3	1.4%	0.7	·	·	·
CCOc1ccccc1NC(=O)COC(=O)c1ccc(S(=O)(=O)N2CCCC2)cc1	36.7	0.8%	1.1	6.4	14.4	-7.4
CC(=O)c1ccc(N=C2C(=O)Nc3ccccc32)cc1	50.6	-0.4%	2.7	6.7	-23.6	-17.9
CN(C)S(=O)(=O)c1ccc(C(=O)Nc2ccc(Cl)cc2)cc1	12.6	2.3%	-0.6	-1.2	-5.5	1.4
CN(C)S(=O)(=O)N(CC(=O)N1CCN(c2ccccc2)CC1)c1ccccc1	5.7	0.8%	-1.0	4.1	0.1	-0.7
COC(=O)CSc1[nH]c2ccccc2c1[N+](=O)[O-]	3.0	-0.4%	-0.6	5.7	-17.3	-4.9
COc1ccc(OC)c(NC(=O)Cn2ncc3c2-c2ccccc2OC3)c1	22.8	2.0%	0.9	·	·	·
COc1cccc(C(=O)COc2ccc3ccc(=O)oc3c2)c1	-6.4	9.4%	0.5	1.0	-2.4	2.9
O=C(c1ccc2c(=O)n(Cc3ccc4c(c3)OCO4)c(=S)[nH]c2c1)N1CCCCC1	4.7	14.1µM*	0.5	3.4	1.9	2.3
COc1cc(C(=O)Nc2ccc3nc(N4CCN(C)CC4)cc(C)c3c2)cc(OC)c1OC	-15.3	1.5%	1.2	-27.4	-12.3	1.6
CC(NC(=O)COC(=O)c1ccc2c(=O)n3c(nc2c1)CCCCC3)c1ccccc1 (configuration not stated)	-2.4	-1.6%	0.1	2.8	-0.1	1.0
Cc1ccc(-n2nc(C)c(C(C)(O)C(F)(F)F)c2N)cc1 (configuration not stated)	-14.1	1.8%	-0.3	-1.8	-12.4	-5.7
Cc1nc(NC(=O)c2ccccc2)sc1-c1csc(Nc2ccc(C(=O)O)cc2)n1	-1.8	-2.5%	3.0	5.3	2.7	0.5

The last four records of the part before lead into the next:
SMILES	TRPML1 inh	PINK1 modulator	TRPML1 agonist	Six1-Eya2 blk	D2 PAM	D2 ag
COc1cc(C(=O)Nc2ccc3nc(N4CCN(C)CC4)cc(C)c3c2)cc(OC)c1OC	-15.3	1.5%	1.2	-27.4	-12.3	1.6
CC(NC(=O)COC(=O)c1ccc2c(=O)n3c(nc2c1)CCCCC3)c1ccccc1 (configuration not stated)	-2.4	-1.6%	0.1	2.8	-0.1	1.0
Cc1ccc(-n2nc(C)c(C(C)(O)C(F)(F)F)c2N)cc1 (configuration not stated)	-14.1	1.8%	-0.3	-1.8	-12.4	-5.7
Cc1nc(NC(=O)c2ccccc2)sc1-c1csc(Nc2ccc(C(=O)O)cc2)n1	-1.8	-2.5%	3.0	5.3	2.7	0.5
COC(=O)c1csc(S(=O)(=O)N2CCOCC2)c1OC	17.0	-1.0%	2.0	-2.3	-5.2	3.5
CN1CCN(C(=O)c2ccc(Cl)cc2)CC1	3.6	0.7%	-0.2	4.9	-10.3	-2.9
CCOc1ccc(N(CC(=O)NN=C2CCCC2)S(C)(=O)=O)cc1	10.3	2.8%	0.3	2.9	-1.8	-0.7
O=C(CN1C(=O)CS/C1=C\c1nc(-c2ccc(Cl)cc2)cs1)Nc1cccnc1Cl	9.3	28.5%	-0.3	-9.2	-12.9	-2.3
Cc1ccccc1OCC(=O)Nc1cccc(C(=O)O)c1	-7.7	1.0%	0.0	-2.4	-2.8	-2.4
Cn1c(SCC(=O)Nc2nccs2)nnc1-c1ccncc1	-5.8	0.0%	-0.8	-3.6	-8.0	-1.0
COCCn1c(Cc2ccccc2)nnc1SCC(=O)Nc1cc(C)on1	12.8	0.7%[38.3 µM]	-0.6	-2.3	-3.0	-1.7
Cc1ccc(-c2cc(C(=O)N3CCCc4ccccc43)c3ccccc3n2)cc1	65.4	?	3.2	-2.7	-19.0	-2.9
CCOC(=O)[C@]12CCCC=C1N(Cc1ccco1)C(=O)[C@H](CC(=O)NCCCCc1ccccc1)C2	·	-1.1%	-0.3	-3.5	·	·
Cn1c(=O)n(C)c2cc(S(=O)(=O)NCc3ccco3)ccc21	-6.1	0.2%	-0.6	-2.2	-4.6	-2.0
COc1ccc2nc(NC(=O)CSc3nc(C)cc(C)n3)sc2c1	-13.9	1.2%	2.3	-25.6	9.9	-0.6
Cn1c(SCC(=O)N/N=C/c2cccs2)nc2ccccc21	12.4	2.2%[38.3 µM]	-0.2	-1.0	-7.3	-1.7
Cc1cc(C(=O)COC(=O)c2ccc(CO)cc2)c(C)n1CC1COc2ccccc2O1 (configuration not stated)	2.8	1.5%	1.2	-1.5	0.7	7.7
CCC(=O)OCC(=O)c1cc(C)n(-c2ccc(Br)cc2)c1C	-6.3	0.6%	0.7	7.6	-9.9	-0.6
COC(=O)c1scc(-c2ccc(C)cc2)c1S(=O)(=O)Nc1cc(Cl)ccc1C	14.2	-0.5%	0.4	·	·	·
CCOC(=O)c1sc2ncn(/N=C/N(C)C)c(=O)c2c1C	2.9	·	1.1	4.7	-16.0	-1.7
COc1ccc(NC(=O)CSc2nnc3ccc(-c4ccncc4)nn23)cc1	5.2	0.4%	0.0	-5.1	2.5	-3.8
